High-throughput results deposited in PubChem by National Center for Advancing Translational Sciences (NCATS).
hNpr1 antagonist = Natriuretic polypeptide receptor (hNpr1) antagonism - Primary qHTS; 76,000 tested, 1.6% active; HEK293 hNpr1 GloSensor cGMP, ANP-stimulated luminescence; Potency, µM (doses to about 46.3 µM), for the others: top-dose activity change, negative = inhibition, actives largely listed as inhibitors; Atrial natriuretic peptide receptor 1 (Homo sapiens), P16066; AID 1347048, 2019; active = well fitted inhibition curve with a large enough effect; inconclusive = small, poorly fitted or top-dose-only effect; inactive = no such curve, though single readings can be large or run the other way;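 further: nearly all actives have a fitted effect of over 60% in size; nearly all hits also lower the signal before the agonist is added; a reference antagonist and vehicle were the controls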
Target sequence (P16066 whole entry, looked up): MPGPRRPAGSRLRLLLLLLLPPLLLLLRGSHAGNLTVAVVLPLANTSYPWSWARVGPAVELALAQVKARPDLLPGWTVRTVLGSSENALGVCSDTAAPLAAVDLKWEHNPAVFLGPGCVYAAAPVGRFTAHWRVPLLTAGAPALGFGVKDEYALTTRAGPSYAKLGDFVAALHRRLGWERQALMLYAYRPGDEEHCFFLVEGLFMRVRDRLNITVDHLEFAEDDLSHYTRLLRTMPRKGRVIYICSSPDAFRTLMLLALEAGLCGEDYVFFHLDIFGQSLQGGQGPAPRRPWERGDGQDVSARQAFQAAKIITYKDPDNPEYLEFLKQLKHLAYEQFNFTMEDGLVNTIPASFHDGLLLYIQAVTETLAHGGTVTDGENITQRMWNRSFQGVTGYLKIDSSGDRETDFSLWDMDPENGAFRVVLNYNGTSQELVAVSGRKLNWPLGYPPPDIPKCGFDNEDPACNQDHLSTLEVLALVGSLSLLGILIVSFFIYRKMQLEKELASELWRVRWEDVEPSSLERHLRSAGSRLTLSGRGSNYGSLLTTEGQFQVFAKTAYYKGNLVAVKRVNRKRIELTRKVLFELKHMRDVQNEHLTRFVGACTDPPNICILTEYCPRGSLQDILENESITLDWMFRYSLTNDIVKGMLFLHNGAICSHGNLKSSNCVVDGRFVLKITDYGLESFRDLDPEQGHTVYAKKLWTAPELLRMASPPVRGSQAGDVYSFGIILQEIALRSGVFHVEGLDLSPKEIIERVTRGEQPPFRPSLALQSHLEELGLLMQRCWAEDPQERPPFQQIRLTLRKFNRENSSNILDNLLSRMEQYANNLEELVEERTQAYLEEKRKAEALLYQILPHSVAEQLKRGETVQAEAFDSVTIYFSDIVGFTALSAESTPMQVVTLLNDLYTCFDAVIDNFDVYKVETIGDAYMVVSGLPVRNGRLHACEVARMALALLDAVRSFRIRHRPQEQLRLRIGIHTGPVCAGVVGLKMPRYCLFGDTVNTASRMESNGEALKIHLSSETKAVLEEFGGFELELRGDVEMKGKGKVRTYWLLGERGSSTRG
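HEK293 cells stably expressing human Npr1 and cGMP GloSensor pGS-40F, loaded 2 h with 2% GloSensor reagent, given compound 30 min at room temperature. Luminescence read before and 20 min after 0.1 nM hNppA.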
Numbers without * were called inactive; ? = inconclusive; & = joins results of further samples; [ ] = another dose, or the depositor's remark. On the % scale 0 is the no-effect control and ±100 the full control effect; potency means the concentration at half of the fitted maximal effect.

SMILES	hNpr1 antagonist
Cc1cccc(S(=O)(=O)N2C[C@H](c3nc(-c4cccnc4)no3)[C@@H](C)C2)c1	-0.5%
CC1=C[C@@H](CNC(=O)c2cnccn2)[C@H](C(C)C)C[C@H]1Cc1nc2ccccc2[nH]1	?
O=C(O)C[C@@H]1CCN(C(=O)Nc2ccc(OC(F)(F)F)cc2)C[C@@H]1CCN1CCOCC1	2.3%
COCCCNC(=O)Cc1cccn1-c1ccc(F)cc1	-1.3%
COc1ccc(-c2nc(C(C)C)nc3c2CCN(C(=O)c2cccc(OC)c2)CC3)cc1	2.4%
Cc1cn2nc(C(=O)NC3CCC(C)CC3)cc2c(N2CCCC2)n1 (configuration not stated)	10.7%
CC(C)CN(C/C=C/c1ccccc1)C(=O)C1CC2(CCNCC2)CN1 (configuration not stated)	5.0%
N#Cc1ccc(CN2CCC3OCCN(Cc4ccccc4F)C(=O)C3C2)cc1 (configuration not stated)	-20.2%[70.6 µM]
Cn1c(C(=O)NC(C)(C)C)cc2c1CCN(Cc1ccc(F)cc1)C2	0.9%
CCC(=O)N1CCc2c(C(=O)Nc3ccc(N4CCOCC4)cc3)cccc21	-6.6%

Fetched by structure from the list above:
SMILES	hNpr1 antagonist
Cc1cccc(S(=O)(=O)N2C[C@H](c3nc(-c4cccnc4)no3)[C@@H](C)C2)c1	-0.5%
Cc1cn2nc(C(=O)NC3CCC(C)CC3)cc2c(N2CCCC2)n1 (configuration not stated)	10.7%

The list continues.
SMILES	hNpr1 antagonist
COC[C@@H]1CN(C(=O)CN2CCCC2=O)C[C@H]1c1ccncc1	1.4%
CC1(CCCCc2ccccc2)COc2ccc(C(=O)NCc3ccncc3)cc2N1 (configuration not stated)	?
O=C(Cn1ccnc1)N1CCC(c2noc(-c3ccncc3)n2)C1 (configuration not stated)	-1.6%
N#Cc1ccc(CN2CCc3ncc(C(=O)NCCOc4ccccc4)n3CC2)cc1	?
COc1ccc([C@@H](NC(=O)c2ccn[nH]2)C2CC(O)C2)cn1 (some centres not stated)	5.4%
COc1ccccc1CN1CCCn2nc(C)c(-c3ccccc3[S+](C)(=O)[O-])c21	-19.0%[70.6 µM]
Cc1ccc(-c2noc(CNC(N)=O)n2)nn1	0.3%
Cc1ccc(C(=O)NC2CCCN(c3cc(-c4ccccc4)[nH]n3)C2)cn1 (configuration not stated)	-10.4%
O=C(CN1CC2CC(C1)[C@H]1CCCC(=O)N1C2)NCCCN1CCCCCC1 (some centres not stated)	-15.8%
COc1ccc(-c2ccc3c(c2)C(=O)N2CCN(C(=O)NC4CCCCC4)C[C@@H]2C(=O)N3)cc1	2.1%
Cc1onc(-c2ccccc2)c1C(=O)N(C)C1CCCN(C2Cc3ccccc3C2)C1 (configuration not stated)	-9.4%
COCc1noc([C@@H]2CC(F)(F)CN2C(=O)CN2CCCCCC2)n1	4.2%
Cc1nn2c(c1-c1cccnc1N1CCOCC1)N(Cc1ccccc1F)CCC2	-18.1%[70.6 µM]
CCOC(=O)c1cccc(NC(=O)N2CC[C@@H](CC(=O)NCc3cccc4ccccc34)[C@@H](CC)C2)c1	-6.8%
COc1cccc(CN2Cc3cc(NC(=O)Cc4ccccc4)ccc3OCC2=O)c1	-0.7%
COc1ccc(-c2noc(C(=O)NC3CC3)c2[C@H](C)O)cc1	6.0%[70.6 µM]
O=C(NC1CCCC1)c1ccc2c(c1)N(C(=O)c1ccc(F)cc1)CC2	2.0%
CN(C)c1cccc(C(=O)NC2CCN(c3cc(-c4ccccc4)[nH]n3)CC2)c1	-22.3%
COc1ccc(-c2noc([C@@H]3CCCN3C(=O)COc3ccc(C)cc3)n2)cc1	-26.3%
O=C1NCCCN1C1CCN(Cc2ccccc2C(F)(F)F)CC1	6.9%[70.6 µM]
O=C(NCc1ccnc2[nH]ccc12)c1ccc(F)cc1	1.5%[70.6 µM]
C[S+](=O)([O-])CCn1ncc2cc(OCc3cccc(-c4ccc(F)cc4)c3)ccc21	25.1µM*
COC[C@@H]1[C@H](C(=O)NCc2cc(OC)ccc2OC)CCC(=O)N1C	-11.8%
CN(C)C(=O)c1cc(-c2ccc(Cl)cc2)cn1C	-0.3%
O=C(c1cncnc1)N1C[C@@H](COCC2CC2)[C@H](c2ccncc2)C1	-0.1%
O=C(Nc1cccc(C(F)(F)F)c1)O[C@@H]1CO[C@H]2[C@@H]1OC[C@@H]2NS(=O)(=O)c1cccc2cccnc12	-0.6%
COC[C@@H]1CN(Cc2ccncc2F)C[C@H]1c1nc(C)no1	9.6%
COCCN1C[C@H]2CN(C(=O)NCc3ccccc3)CCN2C1=O	-1.3%[70.6 µM]
COC(=O)[C@H](NC(=O)C1=C[C@@H](NC(=O)CS(=O)(=O)c2ccccc2)[C@@H](O)[C@H](O)C1)C(C)C	2.5%
COc1ccnc(-c2nnc3ccc(N(C)CCN(C)C)nn23)c1	1.2%[70.6 µM]
O=C(Nc1ccccc1)N1C[C@@H]2OCC(=O)N(Cc3ccccn3)[C@@H]2C1	-12.1%[70.6 µM]
COc1ccccc1N1CCN([C@@H]2[C@H](O)[C@H](CO)O[C@@H]2CNC(=O)c2cccc(F)c2)CC1	4.4%
O=C(Nc1ccc([C@@H](O)[C@H]2COCC(=O)N2Cc2ccccn2)cc1)C1CCCC1	-0.9%[70.6 µM]
CCC(c1cccs1)N1C(=O)[C@H]2CN(S(=O)(=O)c3ccc(F)c(F)c3)C[C@H]2C1=O (some centres not stated)	-1.0%
COc1cccc(NC(=O)Cn2c(C)cc3nc4n(c(=O)c32)CCCCC4)c1	-5.0%
O=C(CC(F)(F)F)NCCc1noc(-c2ccccc2)n1	1.0%
Cc1cccc(CN2CCCC(O)(CN3CCNC(=O)C3(C)C)C2=O)c1 (configuration not stated)	4.0%
O=C(Cc1ccc(F)cc1)N1CC(c2nnc(-c3ccncc3)o2)C2(CCOCC2)C1 (configuration not stated)	1.4%
Cn1cccc1C(=O)N1CCCN(C(=O)C2CC2)C(c2ccccc2)CC(=O)NCC1 (configuration not stated)	-1.0%
O=C(CC(F)(F)F)N1CCOc2ccc(CN3CCc4ccccc4C3)cc2C1	2.3%

5 of the entries above in order of their number in hNpr1 antagonist, descending.
SMILES	hNpr1 antagonist
COc1ccccc1N1CCN([C@@H]2[C@H](O)[C@H](CO)O[C@@H]2CNC(=O)c2cccc(F)c2)CC1	4.4%
Cc1cccc(CN2CCCC(O)(CN3CCNC(=O)C3(C)C)C2=O)c1 (configuration not stated)	4.0%
O=C(CC(F)(F)F)NCCc1noc(-c2ccccc2)n1	1.0%
Cn1cccc1C(=O)N1CCCN(C(=O)C2CC2)C(c2ccccc2)CC(=O)NCC1 (configuration not stated)	-1.0%
COc1cccc(NC(=O)Cn2c(C)cc3nc4n(c(=O)c32)CCCCC4)c1	-5.0%

(list continues)
SMILES	hNpr1 antagonist
N[C@@H]1CCN(Cc2ccccc2OCc2ccc(Cl)cc2)C[C@H]1O	0.0%
Cc1cc(N2CCN(C(=O)[C@H]3CC[C@@H](N)C3)CC2)n2ncnc2n1	4.5%
Fc1ccc(OCCC2CCNC2)cc1 (configuration not stated)	4.9%
COCCOc1ccc2c(n1)CCN(C(=O)c1cccc(OC)c1)C2	-0.2%
COc1cccc(C(=O)N2CCCC2c2nncn2CCN(C)C)c1C (configuration not stated)	3.7%
CCn1cc(S(=O)(=O)N2CC(F)(F)C[C@H]2c2nc(C)no2)cn1	-2.5%
O=C([C@@H]1CNC[C@H](C(=O)N2CCC(c3ccncn3)CC2)C1)N1CCCC1	2.7%
COc1cc(OC)cc(C(=O)NC2CCN(c3cc(-c4ccccc4)[nH]n3)CC2)c1	0.0%
COc1ccc(-c2ccc3c(n2)CNC(=O)CO3)cc1F	4.7%[70.6 µM]
O=C(NCc1ccc(-c2cccc(Cl)c2)o1)[C@H]1CCC[C@@H](O)C1	-10.0%
Cc1noc([C@@H](C)NC(=O)c2nc3ccccc3[nH]2)c1C(=O)O	-0.5%[70.6 µM]
CCCCc1cc(C[C@H]2CNCC[C@H]2CC(=O)N(CC)CC)no1	1.5%[70.6 µM]
CN(C)[S+](=O)([O-])c1ccc2c(c1)OCCN(Cc1ccccc1Cl)C2	-29.6%[70.6 µM]
COCc1c(C(=O)N2CCCn3ccnc3C2C(C)C)noc1C (configuration not stated)	3.2%
Cc1cc(C(=O)N2CC[C@@H]3CN(Cc4ccccc4)[C@@H]3C2)nn1C	4.1%
CCOc1ccccc1CN1CCN(C(=O)CC2CCOCC2)CC1	7.4%
Cc1ccc(-c2nnc(C3CN(C(=O)CC(C)(C)C)CC34CCOCC4)o2)cc1 (configuration not stated)	2.6%
COc1cccc(C(=O)N2C(C(=O)NC(C)C)COC23CCN(C(=O)CC(C)(C)C)CC3)c1 (configuration not stated)	0.1%
Cc1ccccc1N1Cc2c(NCCc3ccc(Cl)cc3)ncnc2N(C)CC1=O	-4.0%
CN(Cc1ccccc1C(F)(F)F)C1CCc2ccccc21 (configuration not stated)	19.6%&5.1%[70.6 µM]
O=C(c1cccc(F)c1)N1CCCC1c1nc(C2CCOCC2)no1 (configuration not stated)	2.2%
Cc1ccccc1S(=O)(=O)N1CCC2(CC1)CC(CC(=O)N1CCCC1)CCO2 (configuration not stated)	-4.5%
CC(C)c1noc([C@@H]2C[C@H](NC(=O)Nc3ccccc3)CN2C)n1	4.8%[70.6 µM]
O=C(CCC[C@H]1NC[C@@H]2C[C@H]1CN(Cc1ccccc1)C2)NCC1CC1	-1.0%
Cc1ccc(C)c(N2CCN(C(=O)CCc3conc3-c3ccccc3F)CC2)c1	-14.6%
O=C(CC1CCCCC1)N1CCCC1c1nncn1Cc1ccncc1 (configuration not stated)	4.7%
CN1C[C@@H](NC(=O)c2ccc(C(C)(C)C)cc2)C[C@H]1c1nc(-c2ccncc2)no1	1.5%[70.6 µM]
C=CCNC(=O)N[C@H]1CCN2C(=O)c3ccccc3NC(=O)[C@@H]2C1	-0.3%[70.6 µM]
CN(C)S(=O)(=O)N1CCC2(CCCN(CCCc3ccccc3)C2=O)C1 (configuration not stated)	6.2%
O=C(c1ccc(C(F)(F)F)cc1)N1CCC2(CC1)CN[S+](=O)([O-])c1ccccc1N2	9.3%
NC(=O)CO[C@@H]1CO[C@H]2[C@@H]1OC[C@@H]2NC(=O)Nc1ccccc1	-0.7%[70.6 µM]
Cc1noc([C@@H]2CN(Cc3ccccc3C(F)(F)F)C[C@H]2CO)n1	-5.0%
COc1ccc(-c2ccc3c(c2)C(=O)N2C[C@@H](NS(=O)(=O)c4ccc(F)cc4)C[C@H]2C(=O)N3)c(OC)c1	-21.6%
Cc1ccc(NC(=O)C2CC(=O)N(c3n[nH]c4cccc(F)c34)C2)nc1 (configuration not stated)	5.1%
CNc1nc(C(=O)NCc2ccc3[nH]c(-c4ccc(F)cc4)c(C)c3c2)cs1	?
O=C(C1CC1)N1CCCN(S(=O)(=O)c2ccc3c(c2)OCCO3)c2ccccc21	-3.2%
COc1cccc(CCC(=O)N2CCC3(CC2)N=C(c2ccc(C)cc2)NO3)c1	-7.4%
O=C(c1ccco1)N1CCCC(c2nc(CCOCC3CCOCC3)no2)C1 (configuration not stated)	3.1%
O=C(CCn1cccn1)NC1CC(=O)N(Cc2cccc3ccccc23)C1 (configuration not stated)	4.8%
O=C(c1ccn[nH]1)N1C[C@@H](COCC2CC2)[C@H](c2ccncc2)C1	2.9%
Cc1nc(-c2c3n(c(=O)n(CC(=O)Nc4ccc(C)c(C)c4)c2=O)CCCCC3)no1	-3.3%
O=C(NCC1(COc2cccnc2)C[C@@H](O)[C@@H](O)C1)c1cccnc1 (some centres not stated)	5.3%[70.6 µM]
Cc1ccc(NC(=O)N[C@H]2C[C@@](O)(C(=O)N[C@H](C)C(N)=O)C[C@@H](O)[C@@H]2O)cc1	0.8%[70.6 µM]
COc1ccc(S(=O)(=O)N2CC[C@H]3NC(=O)N(Cc4ccccc4)C(=O)[C@H]32)cc1	2.3%[70.6 µM]
O=C(Cc1ccccn1)N1CCn2c(nn(-c3ccc(F)cc3)c2=O)C1	0.5%
COCCNC(=O)C[C@@H]1c2nc(NC(=O)c3ccnc(Cl)c3)sc2C[C@@H]2[C@](C)(CO)[C@H](O)CC[C@]21C	-0.1%
O=C(CCn1ccn2nc3c(c2c1=O)CCCC3)NCc1ccc2c(c1)OCO2	-0.3%
O=C(NCc1ccccc1)NC[C@H]1Cn2cc(-c3ccccc3)nc2CO1	-0.8%[70.6 µM]
COc1ccc(-c2cc(N3CCC(NC(=O)c4cccc(Cl)c4)C3)n[nH]2)cc1 (configuration not stated)	-18.3%
CCNC(=O)[C@@H]1C[C@H](NC(=O)c2ccn(CC)n2)CN1C1CCOCC1	3.0%

(list continues)
SMILES	hNpr1 antagonist
CNC(=O)[C@@H]1CN(S(=O)(=O)c2cc(F)ccc2C)C[C@H]1C1CCN(C)CC1	5.0%
CC(C)CNC(=O)N1CCC2(CC1)CC(N(C(=O)c1ccccc1)C1CC1)CCO2 (configuration not stated)	-3.0%
O=C(NCCc1ccncc1)C1CN(C(=O)CCc2ccccc2)CC12CCOCC2 (configuration not stated)	3.8%
CC(C)(O)C#Cc1ccc(-c2nccn2-c2cccc(-n3cncn3)c2)cc1	2.0%
O=C(c1ccc(Cl)nc1)N1CCn2c(nn(-c3ccc(F)cc3)c2=O)C1	2.3%
CCNC(=O)N1CCC(Cc2ccc(C(=O)NCCN3CCCCC3)cc2)CC1	-2.0%
Cc1cccc(C(=O)NCc2nnc3cc(-c4nc(C(C)C)no4)ccn23)c1	2.5%

Rewritten in markdown: 3 of the compounds above.
| mol | hNpr1 antagonist |
| --- | --- |
| COc1ccc(-c2nc(C(C)C)nc3c2CCN(C(=O)c2cccc(OC)c2)CC3)cc1 | 2.4% |
| COc1cccc(NC(=O)Cn2c(C)cc3nc4n(c(=O)c32)CCCCC4)c1 | -5.0% |
| O=C(c1ccc(C(F)(F)F)cc1)N1CCC2(CC1)CN[S+](=O)([O-])c1ccccc1N2 | 9.3% |

Not all compounds are listed. The share of hits here may be higher or lower than overall.
